LANA-H2A inh: blocks KSHV LANA binding to histone H2A/H2B; Q9QR71; cell-free LANA-H2A/H2B peptide, fluorescence polarization; inhibition, % (no concentration beside the values); 320,000 compounds, 0.6% hits; in the data active = inhibition mostly above about 10%, no sharp cut-off; inactive = mostly below about 6.7%;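 also: stock transfer was 7.5 nL into about 10 µL; 0% = median of vehicle wells and 100% = median of positive control wells; one replicate is shown; the record names a cut of 25% in any replicate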
UCH37 inh: inhibitors of human deubiquitinating enzyme UCH37; Q9Y5K5; purified proteasome/UCH37, Ub-AMC cleavage fluorescence; inhibition, % (no concentration beside the values); 330,000 compounds, 0.33% hits; AID 588478;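 active = mean of two replicates above 20%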;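 also: 0% = compound-free wells with enzyme and 100% = wells lacking proteasome; stock transfer was 100 nL into about 20 µL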
Target sequence (Q9Y5K5 whole entry, looked up): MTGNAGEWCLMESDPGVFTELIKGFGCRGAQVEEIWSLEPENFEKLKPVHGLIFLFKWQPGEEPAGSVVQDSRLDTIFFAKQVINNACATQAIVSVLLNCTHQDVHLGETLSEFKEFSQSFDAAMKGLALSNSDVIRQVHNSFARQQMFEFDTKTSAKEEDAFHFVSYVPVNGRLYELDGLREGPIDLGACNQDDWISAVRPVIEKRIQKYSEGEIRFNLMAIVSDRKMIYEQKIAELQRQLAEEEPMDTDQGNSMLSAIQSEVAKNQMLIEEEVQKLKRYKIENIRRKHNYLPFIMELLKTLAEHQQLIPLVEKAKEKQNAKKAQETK
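system = Proteasome-associated human UCH37 deubiquitinase | amount = 0.15 nM proteasome as dispensed | medium = pH 7.4 Tris-HCl (50 mM) with ovalbumin, ATP-MgCl2, DTT | incubation = 30 min preincubation with enzyme, 25 min cleavage at room temperature | detection = AMC fluorescence 355/460 nm | read-out basis = percent inhibition | controls = no-proteasome and no-compound wells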
Calb FLC: C. albicans growth modulation with fluconazole; C. albicans CaCi-2 (fluconazole-resistant clinical isolate) + fluconazole, Alamar Blue growth, 48 h; growth inhibition, % (test concentration not listed); 300,000 compounds, 0.57% hits; AID 1979;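 active = most replicates above 75%; inconclusive = exactly half above 75%; inactive = most below 75%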;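 also: all wells also contain fluconazole at 8 µg/ml as a sub-toxic cotreatment; 0% = median of DMSO wells and 100% = median of geldanamycin control wells; wells of about 8 µL received 7.5 nL stock; the first replicate is given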
T cruzi repl: blocks replication of Trypanosoma cruzi; T. cruzi beta-gal in NIH3T3, luminescence, 90 h; inhibition, % (concentration not given with the values); 300,000 compounds, 1.4% hits;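 active = mean inhibition across valid replicates above about 55%, limit read from the data; inconclusive = mean below that limit but half or more replicates reach it; inactive = mean below it, under half of replicates reach it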;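 also: signal also drops with host cell toxicity which is not excluded here; 0% = plate median of DMSO wells and 100% = zero luminescence signal; higher percent means less beta-gal luminescence so fewer parasites; stock transfer was 50 nL into about 50 µL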
Beta apoptosis: beta cell apoptosis inhibition; AID 435005; 300,000 compounds, 0.8% hits; INS-1E cytokine-induced death, ATP luminescence, 48 h; percent of positive-control rescue, neutral wells zero; protection from apoptosis, % (no concentration beside the values);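 active = all replicates at 75% or more, or half of them and the mean; inconclusive = half reach 75% but not the mean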;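 also: 0% = cytokine-treated negative control wells and 100% = positive control rescue; higher means more ATP so stronger rescue from cytokine killing; wells of about 40 µL received 100 nL stock; the first replicate is given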
Bfl-1 A1 inh: inhibitors of the anti-apoptotic protein A1, read as caspase activation | MEF A1-2A-BIM cells, Caspase-Glo 3/7 luminescence, 3 h; percent of clofoctol response, vehicle zero | caspase activation, % (test concentration not listed) | 330,000 compounds, 0.066% hits;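 active = over half of replicate activation scores above 10%, or exactly half above 10 with the replicate mean above 10; inconclusive = replicate mean below 10 yet half the replicates above 10; inactive = over half of replicates below 10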;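 also: wells of about 30 µL received 50 nL stock; many hits fall short of the cut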
B2AR ag: human beta-2 adrenergic receptor agonism by FAP; P07550; response, % (no concentration beside the values); 340,000 compounds, 0.43% hits; Am2.2-beta2AR cells, FAP receptor internalization, flow cytometry; reference of the scale not given here;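 active = response above a set limit, near 3 SD of response in nonfluorescent compounds, cut at about 42% in these data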;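 also: stock transfer was 100 nL into about 11 µL; a reference agonist was the positive control; negative values mostly stem from fluorescent compounds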
Target sequence (P07550 whole entry, looked up): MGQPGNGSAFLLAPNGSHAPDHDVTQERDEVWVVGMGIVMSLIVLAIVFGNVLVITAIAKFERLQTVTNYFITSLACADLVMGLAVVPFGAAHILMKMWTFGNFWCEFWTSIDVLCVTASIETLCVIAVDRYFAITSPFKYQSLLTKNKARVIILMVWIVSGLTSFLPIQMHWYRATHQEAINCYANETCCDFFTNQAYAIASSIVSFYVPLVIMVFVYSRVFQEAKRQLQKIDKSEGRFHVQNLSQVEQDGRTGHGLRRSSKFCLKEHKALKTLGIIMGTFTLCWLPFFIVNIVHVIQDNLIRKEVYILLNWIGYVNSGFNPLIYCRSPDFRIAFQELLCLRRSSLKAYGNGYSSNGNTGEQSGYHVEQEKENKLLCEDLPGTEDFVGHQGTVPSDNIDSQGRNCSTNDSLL
RanGTP-Impb inh: disruptors of Ran-importin-beta complex formation – biochemical, FRET, CFP-Ran, YFP-importin-beta, homogeneous, primary screen; cell-free CFP-Ran/YFP-importin-beta FRET ratio; inhibition, % (test concentration not listed); 300,000 compounds, 1.1% hits; AID 2216;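 active = most replicates above 15%; inconclusive = exactly half above 15%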;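 also: 0% = DMSO wells and 100% = Ran loaded with GDP instead of GTP; wells of about 40 µL received 100 nL stock; the first replicate is given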
Numbers without * were called inactive; ? = inconclusive; . = no result given.

SMILES	LANA-H2A inh	UCH37 inh	Calb FLC	T cruzi repl	Beta apoptosis	Bfl-1 A1 inh	B2AR ag	RanGTP-Impb inh
COc1ccccc1CNC(=O)Cn1cnnn1	0.0	3.5	-8.2	-6.8	-11.0	0.0	-10.3	?
CN(C)CCCOC(=O)c1sc2ccccc2c1Cl	1.3	2.8	-22.6	45.1	-2.4	0.9	-7.4	-3.1
Clc1ccc(Cn2ncc3c(NCc4ccco4)ncnc32)c(Cl)c1	.	5.7	5.1	-6.1	24.4	0.5	.	1.3
CCCc1ccc2oc(C(=O)N3CCN(C4CCS(=O)(=O)C4)CC3)c(C)c2c1 (stereo not given)	1.6	4.1	-3.4	-22.4	0.6	0.3	-11.3	-1.2
COc1ccccc1OCC(=O)Nc1ncc(C)s1	2.2	-2.6	.	.	0.4	-3.4	6.0	.
Cc1ccc(NC(=O)c2ccccc2Cl)c(Cl)c1	1.8	2.3	25.0	-8.0	5.0	0.6	15.4	-1.9
OCCNNC(=S)NC1CC2C=CC1C2 (stereo not given)	3.0	2.8	22.4	-8.0	-3.7	0.1	-2.6	-3.2
O=C(c1ccco1)N1CCN(C(=S)Nc2ccc(F)c(Cl)c2)CC1	2.4	-0.2	5.9	-16.9	-1.9	1.7	-5.2	1.0
Cc1ccc(C2=NOC(c3nnc(-c4ccccc4)o3)C2)cc1 (stereo not given)	-5.3	1.0	10.3	-17.0	0.1	1.7	-9.5	3.0
Cc1cccc(NC(=O)CSc2cccc3cccnc23)c1C	-2.2	-62.4	9.1	-4.9	-6.7	0.2	-1.7	-2.7
CCC(C)Sc1nc2c(cnn2-c2ccc(C)c(C)c2)c(=O)[nH]1 (stereo not given)	-7.0	2.6	0.4	19.2	1.6	-0.3	-2.6	?
CC(=O)Nc1ccc(NC2(C)C(=O)c3ccccc3C2=O)cc1	.	0.6	-23.0	10.0	-8.9	0.0	1.9	-3.3
O=C(Oc1ccc(Br)cc1C(=S)N1CCOCC1)c1ccc([N+](=O)[O-])cc1[N+](=O)[O-]	-15.7	6.8	-2.1	-7.8	0.9	-0.2	11.0	1.7
Cc1nc(-c2ccc(NC(=O)C3CC3)cc2)cs1	-8.5	6.2	-17.1	10.6	1.8	-2.7	7.3	0.6
CCOc1ccccc1CNC(=O)Cn1nc(C)c2c(C)n(-c3ccc(C)cc3)nc2c1=O	-2.8	8.2	59.6	1.2	17.1	4.1	0.4	-0.6
CCN(CC)S(=O)(=O)c1cccc2cccnc12	-2.1	1.1	0.4	13.7	-7.6	0.4	-0.3	-4.3
COc1cccc(/C=N/NC(=O)c2cccc3ccccc23)c1	-7.1	.	6.3	10.0	-9.3	-0.7	-1.4	1.1
COc1cc(C)ccc1OCc1cc(C(=O)N(Cc2c(C)nn(C)c2C)C2CC2)no1	-3.6	1.5	1.0	-1.0	6.9	-0.7	5.9	4.6
COc1ccc(CCN(C)C2CCCN(S(=O)(=O)c3ccc(C)cc3)C2)cc1OC (stereo not given)	3.1	3.0	3.5	37.8	-2.3	0.4	3.4	-0.9
COc1ccc(Nc2nc(N3CCCCC3)nc(N3CCCCC3)n2)c(OC)c1	0.0	4.2	-0.3	13.9	1.4	1.5	5.2	-0.6
O=C(CN1C(=O)C2CCCCC2C1=O)OCC(=O)c1ccc(Cl)s1 (stereo not given)	1.7	3.7	3.6	-6.8	-8.7	1.0	8.7	0.8
Cc1ccc(CNC(=O)c2ccc(N(C)S(=O)(=O)c3ccccc3)cc2)cc1	1.8	0.9	-14.2	19.1	0.0	0.4	7.0	-3.3
O=C(O)c1ccccc1-n1cccc1C(=O)O	-5.5	2.8	1.4	15.5	-3.3	-0.2	-4.2	4.6
CCn1c(=NC(=O)CSC(C)=O)sc2cc(F)ccc21	9.7	5.5	3.1	-11.1	-10.7	-1.3	-4.6	-2.3
O=C(OCCN1CCOCC1)c1cccs1	-6.5	1.7	-4.8	-10.8	-2.8	0.3	1.6	-2.5
COCCCNC(=O)c1c[nH]c2ccc(S(=O)(=O)N3CCC(C)CC3)cc2c1=O	2.4	2.4	1.4	4.0	3.8	-0.3	-7.6	0.6
O=S(=O)(NCCC(c1ccc(F)cc1)c1ccco1)c1ccccc1 (stereo not given)	5.1	6.8	21.9	-14.0	1.3	-2.0	-1.8	3.8
COc1ccc(N2CCN(C(=O)Cc3ccc(-n4c(=O)[nH]c5ccccc5c4=O)cc3)CC2)cc1	-0.7	2.5	-8.3	5.1	11.7	0.2	-5.0	-1.5
Cc1ccc(S(=O)(=O)N2CC(=O)N3CCN(CCN)C3C2)cc1 (stereo not given)	5.0	3.5	.	.	-4.2	0.1	-1.3	.
CCOc1ccccc1C(=O)Nc1ccc(NC(=O)c2ccccc2)cc1	0.8	1.6	-1.0	-11.3	3.9	-2.8	-1.0	0.4
CCNC(=O)CC1C(=O)N(c2ccc(C)cc2)C(=O)N1CCc1ccc(OC)c(OC)c1 (stereo not given)	2.8	3.3	3.0	6.3	1.3	1.7	-7.3	-1.3
O=C1/C(=C/c2cccnc2)CC/C1=C\c1cccnc1	0.0	3.1	10.1	1.8	-15.5	0.2	0.1	8.9
Cc1cc(C)nc(Nc2n[nH]c(-c3ccccc3Br)n2)n1	17.7*	-1.6	-10.8	-5.1	2.1	-1.9	3.1	-1.3
CCOC(=O)N1CCC(NC(=O)CSCc2cnn(-c3ccccc3)c2-n2cccc2)CC1	-12.0	-1.0	-0.5	8.3	-1.4	-2.6	-4.3	1.1
O=C(NC1CCCCCC1)C(=S)N1CCOCC1	-0.4	-1.0	-6.2	-18.7	0.0	0.1	-4.3	-3.4
c1ccc(CNC2=NCCCCC2)cc1	14.2	5.3	-8.4	-14.4	0.2	-0.6	-5.2	1.7
Cc1cc(C)c2c(=O)[nH]c(SCC(=O)NCc3ccccc3)nc2n1	4.0	-14.3	-1.2	-10.5	2.8	0.2	1.3	-3.9
O=C(COC(=O)COc1ccc2ccccc2c1)Nc1cc(C(F)(F)F)ccc1N1CCOCC1	-3.1	0.7	?	-12.2	-19.2	0.0	2.8	-1.7
O=C(Cn1c(CN2CCCCC2)nc2ccccc2c1=O)NC1CCCCC1	8.7	2.3	-25.3	3.2	2.7	2.1	-7.8	-1.9
COc1cccc2[nH]c3c(=O)n(CCN(C)C)cnc3c12	3.6	-94.6	-1.8	-14.2	-9.2	0.2	-1.9	-3.2
COCCCNC(=O)c1ccc(NC(C)=O)cc1	-5.5	1.2	2.9	-16.2	-5.5	-0.6	16.3	-2.8
COc1ccc(C)c2sc(NC(=O)c3cccc(N4C(=O)CCC4=O)c3)nc12	2.1	-67.8	-11.7	-5.3	-2.6	0.1	6.5	0.4
Cc1cc(NC(=O)CSC2=NCCS2)no1	-1.6	3.0	-3.2	-9.6	-2.1	1.1	-1.9	-3.0
CCCN1CNC(=S)N(c2ccc(C)cc2C)C1	-4.4	1.5	0.9	.	-8.6	0.0	2.9	-0.5
CCCN(CC(=O)Nc1ccc(F)c(F)c1F)C(=O)Cn1c(=O)cnc2ccccc21	-8.7	-11.5	-1.3	-0.2	1.8	0.5	4.7	.
CCCCCCCCCCCCN1[C@@H](CC(=O)O)c2cc(C(F)(F)F)ccc2S1(=O)=O	10.4	3.8	-8.8	0.6	3.9	1.0	4.1	3.6
O=C(CSCc1c(Cl)cccc1Cl)Nc1ccc2c(c1)OCCO2	3.3	3.9	-2.0	-5.0	3.8	-0.5	0.0	2.2
CCC1(CC)Cc2ccccc2C(=O)N1	-1.5	2.1	-4.2	-3.6	3.1	1.4	-0.9	1.7
CCOCCCNC(=O)c1ccc2c(=O)n(CCCOCC)c(=S)[nH]c2c1	-5.8	0.2	55.8	-1.2	-14.9	0.5	20.1	3.7
COc1cc(OC)cc(C(=O)NCC(=O)OCC(=O)c2cc(C)n(Cc3ccco3)c2C)c1	-0.3	2.9	13.5	-17.1	-6.6	0.1	-5.0	?
CCOc1ccc(N2CC(C(=O)Nc3ccc(S(=O)(=O)NCC4CCCO4)cc3)CC2=O)cc1 (stereo not given)	-2.1	2.3	9.6	-6.8	-3.1	0.6	-2.7	?
C[C@@H]1COC(=O)[C@H](CC(=O)OC(C)(C)C)C/C=C\C[C@@H](CC(=O)NCCO)C(=O)N1	2.5	0.9	.	.	-7.0	-0.6	1.8	.
O=C(Nc1cccnc1)c1scc2c1OCCO2	-2.0	0.5	1.7	8.7	-8.9	0.3	1.4	3.5
O=C(Cn1cnc2ccccc2c1=O)Nc1nnc(SCc2ccccc2)s1	10.5	2.5	4.3	-9.7	-6.4	-0.3	8.4	4.7
COc1ccc(C)cc1NC(=O)C(OC(=O)CNC(=O)c1cccc(F)c1)c1ccccc1 (stereo not given)	1.5	0.2	3.7	-0.5	-14.7	-0.8	6.2	-1.6
Cc1c(C)n(C(=O)CN2CCN(c3ccccc3)CC2)c2ccccc12	4.1	3.8	6.2	23.4	-0.6	-0.5	5.2	2.7
COc1ccc(NC(=O)N2C3CCCC2CC(NC(=O)C2CC2)C3)cc1 (stereo not given)	1.0	3.3	1.0	-7.3	1.1	-0.7	-0.5	1.4
CCc1nnc(NC(=O)C(=O)NCCOC(=O)c2ccccc2)s1	-4.9	1.7	-9.0	?	4.9	0.3	5.1	0.8
c1cc2c(cc1-n1cnnn1)OCO2	-0.5	-0.9	-4.2	-4.2	-11.2	-0.3	-2.6	4.9
CN(CCc1ccccn1)c1ccc([N+](=O)[O-])cn1	10.2	10.9	-2.4	16.7	1.0	0.1	1.0	-0.4
(further entries)
SMILES	LANA-H2A inh	UCH37 inh	Calb FLC	T cruzi repl	Beta apoptosis	Bfl-1 A1 inh	B2AR ag	RanGTP-Impb inh
COC(=O)c1ccccc1NC(=O)CNCCc1ccc(OC)c(OC)c1	4.7	1.8	-3.2	-1.4	-5.9	0.5	10.7	1.8
NC1=NC[C@H](Cc2ccc(O)cc2)N1CCc1cccc2ccccc12	1.4	0.4	-8.1	-10.0	5.3	?	-1.5	?
CSc1ncccc1C(=O)OCc1ccc(Br)cc1	2.2	0.4	-6.5	-8.0	5.4	0.8	0.7	5.9
CC(=O)N(Cc1ccc(Br)cc1)c1cccc(C)c1C	2.5	3.5	27.7	-10.5	-2.0	0.1	0.5	-2.4
COc1cccc(C(=O)NC2CCN(C(=O)N3CCCCC3)CC2)c1	2.7	1.8	10.0	-5.5	-1.2	0.4	-4.0	1.7
CC1CCCCN1CCn1c(=S)[nH]c2ncccc2c1=O (stereo not given)	-1.4	6.5	-9.1	-5.0	.	0.5	9.6	-1.8
O=C(CN1C(=O)C2C3CC(C(Br)C3Br)C2C1=O)N1CCOCC1 (stereo not given)	5.1	2.3	-20.3	-6.4	-5.7	0.8	-6.2	8.0
CCC1C(C#N)=C(SC)NC2=C1C(=O)CC(C)(C)C2 (stereo not given)	2.9	-13.8	-15.9	-4.2	-3.1	0.3	5.5	-2.6
COC1CCN(C(=O)C2CCC(=O)N(C3CCCCCC3)C2)CC1 (stereo not given)	3.4	1.8	-1.5	15.6	0.4	-1.1	0.7	2.2
Cc1ccc(C(=O)Nc2cccc(NC(=O)c3ccc(C)c([N+](=O)[O-])c3)n2)cc1[N+](=O)[O-]	2.9	4.5	-1.1	14.0	22.1	-5.6	3.0	0.1
CCN(CCNC(=O)C1CCN(S(=O)(=O)c2cccc3cccnc23)CC1)c1ccccc1	-0.6	10.7	-4.5	-19.1	.	0.7	-0.8	-6.7
COC(=O)c1cccc2c1-c1ccccc1/C2=N/O	-0.2	.	18.7	-20.0	-6.6	0.7	13.6	3.7
